AmpC inh no det – blocks E. coli AmpC beta-lactamase in absence of detergent; 1.8% of 71,000 active; AID 585; AmpC nitrocefin hydrolysis, absorbance 480 nm, no detergent; potencies from a single point are estimates; Potency, µM (series often up to 28.7 µM), without a hit: at the top dose activity change, negative = inhibition; active = falling curve, for most hits resting on a single point; inconclusive = weak or doubtful change; inactive = flat or rising curve; note: % of control where 0% means no effect; about half of the hits show no inhibition at the top dose; a quarter of the inactives give rising signals
Target sequence (P00811 whole entry, looked up): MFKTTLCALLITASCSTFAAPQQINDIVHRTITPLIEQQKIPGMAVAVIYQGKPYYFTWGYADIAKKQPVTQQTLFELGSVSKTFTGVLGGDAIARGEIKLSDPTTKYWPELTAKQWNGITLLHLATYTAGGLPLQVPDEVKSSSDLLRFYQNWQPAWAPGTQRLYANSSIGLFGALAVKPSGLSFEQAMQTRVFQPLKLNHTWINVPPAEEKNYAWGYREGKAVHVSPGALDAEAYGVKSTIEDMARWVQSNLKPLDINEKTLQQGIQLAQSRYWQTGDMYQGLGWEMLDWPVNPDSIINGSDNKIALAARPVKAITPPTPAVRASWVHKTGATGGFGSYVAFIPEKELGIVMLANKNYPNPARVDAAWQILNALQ
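AmpC, 20 mM phosphate pH 7.0; 15 min cpd preinc, RT; start with nitrocefin (800 uM stock); A480 kinetic read, 20 s intervals, 4 min. No-enzyme wells = negative control.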
The depositor's hits bear a star; ? = inconclusive; & = joins results of further samples; [ ] = another dose, or the depositor's remark. Potency is the fitted concentration of half-maximal effect. The list is partial. The share of hits here may be higher or lower than overall.

mol | AmpC inh no det
O=C(NCCCN1CCOCC1)c1c(O)c2cc(Br)cc(Br)c2[nH]c1=O | 96.0%
CCOC(=O)C1CCN(C(=O)Nc2ccc3nc(C)c(C)nc3c2)CC1 | 25.1%
Cc1ccc(C)c(NC(=O)c2nnn(Cc3ccccc3C)c2N)c1 | -2.3%
CC(C)(C)NC(=O)CN(C(=O)CS(=O)CC(=O)Nc1ccc(F)cc1)c1ccc(F)c(Cl)c1 (centres undefined) | 76.1%
Cc1ccc(C(=O)c2cn[nH]c2-c2cc(Cl)ccc2O)cc1 | -17.7%
Cc1cccc(NC(=O)c2ccccc2OCC(=O)N2CCOCC2)c1C | 4.5%
Cc1ccc(C(=O)Nc2ccncc2)o1 | -2.6%
CC(C)(C)C(=O)c1no[n+]([O-])c1/C(=N/O)C(C)(C)C | -11.9%
COC(=O)c1sccc1NS(=O)(=O)c1ccc(OC)cc1 | -9.7%
CCOC(=O)C(CC)n1cnc2c(oc3ccccc32)c1=O (centres undefined) | 9.3%
CNC(=O)Cn1nc(C)c2ccccc2c1=O | -1.8%
Cc1cnn(C(=S)NCC2CCCO2)c1 (centres undefined) | -4.2%
O=C(N1CCCCC1)N1CCCN(C(=O)N2CCCCC2)CC1 | 17.4%
O=C(CN1CCCN(S(=O)(=O)c2ccc(Br)cc2)CC1)Nc1ccc2c(c1)OCO2 | 31.5%
Cc1[nH]nc2c1C(c1cccc(O)c1)C1=C(CC(C)(C)CC1=O)N2 (centres undefined) | -13.6%
COC(=O)[C@@]1(Cc2ccccc2)[C@H]2c3cc(C(=O)N(C)C)n(CCSCCO)c3C[C@H]2CN1C(=O)c1ccccc1 | 156.5%
COc1ccc(NC(=O)Cn2nc3n(c2=S)CCC3)cc1 | -13.5%
O=C(NCCc1cccc(Cl)c1)c1cccnc1 | 0.9%
CCOC(=O)c1[nH]c(C)c(C(=O)NC2CCCCC2)c1C | -9.6%
CCc1ccccc1NC(=O)C(CC)Sc1nc2cc3c(cc2c(=O)n1Cc1ccco1)OCO3 (centres undefined) | 5.8%
Cn1cnc2cc(NC(=O)c3ccc(Cl)cc3)ccc21 | -19.9%
CCC12CCCN3CCC4(C(=C(C(=O)OC)C1)Nc1ccccc14)C32 (centres undefined) | 33.0%
O=S(=O)(c1cccc2nsnc12)N1CCN(c2ncccn2)CC1 | 8.7%
CC(C)(C)NC(=O)c1ccc(COc2ccccc2Br)o1 | 29.0%
O=C(Cc1cn2ccsc2n1)Nc1ccccc1Oc1ccccc1 | 11.1%
CN(Cc1cc(Br)cc(Br)c1O)Cc1c(O)ccc2ccccc12 | -9.5%[5.75 µM]
O=C1c2ccccc2C(=O)N1CCCc1nc2ccccc2c(=O)n1Cc1ccco1 | 7.9%
C[N+]1=Cc2cc3c(cc2CC1)OCO3 | -5.2%
O=C(CCNC(=O)Cn1ccc2ccccc2c1=O)NCCN1CCN(c2cccc(Cl)c2)CC1 | 141.4%
CC(C)=C1CCC(C)CC1=O (centres undefined) | -2.5%
CCn1c(SCC(=O)NCc2ccccc2)nnc1-c1ccccc1O | -3.6%
CC(=O)N1[C@H](C)C=C[C@]1(Cc1ccccc1)C(=O)NCc1ccc(C)o1 | 106.6%
O=C(NCCc1ccc(Cl)cc1)C1CCC(=O)N1C1CCCC1 (centres undefined) | 20.7%
CCCNC(=O)c1cc(-c2ccc(OC)cc2)on1 | 3.2%
NS(=O)(=O)c1ccc(CCNC(=O)C2CCCN(S(=O)(=O)c3cccnc3)C2)cc1 (centres undefined) | 3.98µM*[single pt active]
Cc1nnc(Sc2nc3c(c(=O)n(C)c(=O)n3C)n2Cc2ccccc2Cl)s1 | 55.7%
O=C(NC1CC1)C1CCCN(C(=O)Nc2ccc(F)cc2)C1 (centres undefined) | 3.0%
CCOc1cc(C2C3=C(CCCC3=O)N(C)C3=C2C(=O)CCC3)cc(Cl)c1O | 13.0%
Cc1c(C(=O)Nc2ccc(-n3cnnn3)cc2)oc2ccccc12 | 7.7%
CS(=O)(=O)Nc1ccccc1Oc1ccccc1 | 5.0%
CN(C)Cc1ccccc1-c1nccc(Nc2ccc(F)cc2)n1 | 31.8%
COc1ccc([C@@H]2CC(=O)c3c(O)cc(O[C@H]4O[C@@H](CO[C@H]5O[C@@H](C)[C@@H](O)[C@@H](O)[C@@H]5O)[C@@H](O)[C@@H](O)[C@@H]4O)cc3O2)cc1O | -0.4%[12.8 µM]
COc1ccc(CCn2nnnc2C(c2ccc(C)cc2)N2CCN(C)CC2)cc1OC (centres undefined) | 12.8%
COc1ccc(-n2c(Cn3c(=O)sc4ccccc43)nnc2SCC(N)=O)cc1 | 41.5%
O=C(O)c1oc2ccccc2c1CN1CCN(c2ccccc2)CC1 | -0.6%
O=C(CSc1nc(C2CCCCC2)n(-c2ccccc2)n1)NCCN1C(=O)CSC1=O | 89.3%
CCOC(=O)C1CCCN(c2ncnc3c2cnn3-c2cccc(C)c2)C1 (centres undefined) | 85.6%
CN=C=S | -3.5%
CCOc1ccccc1-n1c(SCC(N)=O)nnc1-c1ccco1 | 4.5%
CCN(Cc1ccncc1)C(=O)c1cccs1 | -3.9%
C/C(Cl)=C\Cn1c(N2CCCC2)nc2c1c(=O)[nH]c(=O)n2C | 10.8%
CNC(=O)c1ccccc1NC(=O)c1c(O)c2c([nH]c1=O)CCCC2 | 91.8%
CCCCN1C(=O)NC(=O)C2(Cc3c(nc4ccccn4c3=O)N3CCc4ccccc4C32)C1=O (centres undefined) | 32.5%
c1ccc2c(c1)CCN(c1nc3cc4c(cc3s1)OCO4)C2 | -9.7%
CC(C)CCNC(=O)CN(Cc1ccc2c(c1)OCO2)C(=O)Cn1nnc(-c2cccs2)n1 | 3.9%
Cc1cc(C)n2nc(C(=O)Oc3ccc4c(c3)OCO4)nc2n1 | -12.7%
O=C(CSc1ccccc1C(=O)O)NCc1ccco1 | -7.1%
CN1CCN(c2ccc(NC(=O)c3cccc(OCc4ccccc4)c3)cc2)CC1 | 97.1%
C(=N\n1cnnc1)/c1ccccc1OCCOc1ccccc1 | 21.2%
CC(C)(Sc1cc(C(C)(C)C)c(O)c(C(C)(C)C)c1)Sc1cc(C(C)(C)C)c(O)c(C(C)(C)C)c1 | -7.6%[12.8 µM]

(listing goes on)
mol | AmpC inh no det
CCOC(=O)C(C)(C)Sc1ncnc2nc[nH]c12 | 3.5%
CCOc1cc(N2C(=O)CC3CS(=O)(=O)CC32)c(OCC)cc1NC(=O)c1ccccc1 (centres undefined) | 86.6%
Nc1nnnn1CCO | 5.0%[5.75 µM]
CC(=O)c1ccc(NC(=O)CSc2nnc(Cc3cccn3C)n2-c2ccc(F)cc2)cc1 | 128.6%
Cc1ccc(-c2[nH]nc3c2C(c2ccccc2OC(=O)N2CCOCC2)C(C#N)=C(N)O3)cc1 (centres undefined) | 111.6%
COc1ccccc1-c1nc(NC(C)=O)n[nH]1 | -7.3%
CC1CN(c2nc3c(c(=O)n(C)c(=O)n3C)n2Cc2c(F)cccc2Cl)CC(C)O1 (centres undefined) | 79.5%
CS(=O)(=O)N(CC(=O)O)c1ccc(Oc2ccccc2)cc1 | 6.5%
CCN(CC(=O)Nc1ccc2c(c1)CCC2)Cc1nc2ccccc2c(=O)[nH]1 | 77.3%
Cc1nc(NCC2CCCO2)nc2c1C(=O)CC(C)(C)C2 (centres undefined) | 11.4%
O=C(CSc1nnc(-c2ccco2)o1)NC(=O)Cc1ccccc1 | -9.7%
CCc1ccc(NC(=O)N(CCCN2CCOCC2)C(C)c2cc3cccc(OC)c3o2)cc1 (centres undefined) | 132.2%
Cc1ccc(C(=O)NC2CCCCCC2)o1 | -3.6%
O=[N+]([O-])c1cccc(Cl)c1Cl | -10.3%
CCOC(=O)C1(c2ccccc2)NC(c2ccc(N(C)C)cc2)C2C(=O)N(C)C(=O)C21 (centres undefined) | 69.9%

Next results follow.
molecule,AmpC inh no det
COC(=O)C(C(=O)Nc1cc(C)on1)C1CCCCCC1 (centres undefined),-4.2%
CCCCCC(=O)Nc1ccc(N2CCN(C(=O)c3ccccc3)CC2)cc1,50.5%
O=C(NCc1ccco1)c1cnn2c(C(F)F)cc(-c3ccccc3)nc12,-4.4%
CCOC(=O)N1CCC(NC(=O)CS(=O)Cc2nc(-c3ccc(OC)c(OC)c3)oc2C)CC1 (centres undefined),81.1%
c1ccc2oc(SCc3nc4ccccc4s3)nc2c1,5.5%
O=C(Cn1cnc2c(nnn2-c2cccc(Cl)c2)c1=O)N1CCOCC1,22.0%
Cc1nc2ccc(S(=O)(=O)N(C)CC(=O)N3CCc4ccccc43)cc2s1,72.2%
O=C(O)c1ccccc1C(=O)N1CCN(c2ccccc2)CC1,-0.3%
COc1cccc2c1nc(C)c1cc(C)oc12,51.0%
Cc1cc(C)nc(SCc2csc(N)n2)n1,-2.3%
CC(C)N(Cc1nc(-c2ccccc2)no1)C(=O)c1ccc(Cl)cc1,52.6%
COc1cc(C2/C(=C(/O)c3ccc(F)cc3)C(=O)C(=O)N2CCCC(=O)O)ccc1O (centres undefined),15.3%
CCC(=O)Nc1cccc(-c2nc3ccccc3o2)c1,16.2%
Cc1ccccc1CSc1nc2n(n1)C(c1cccs1)C1=C(CCCC1=O)N2 (centres undefined),12.5%
CC(=O)Oc1c(C)cc(O)c2ccccc12,-12.8%
Cc1ccc(Cn2nnc3c(=O)[nH]c(C4CCN(C(=O)Cc5cccs5)CC4)nc32)cc1,106.0%
Cc1ccc(S(=O)(=O)Cn2nnnc2C(C)N2CCN(C(=O)c3ccco3)CC2)cc1 (centres undefined),70.5%
COc1ccc(CCNC(=O)Cn2cnc3c(cnn3-c3ccccc3Cl)c2=O)cc1OC,47.5%
O=C(COC(=O)COc1ccccc1)Nc1ccccc1OC(F)F,4.9%
Cc1cc(C)nc(SC2CCCCC2O)n1 (centres undefined),-0.4%

A few values from the results shown.
Under AmpC inh no det, `c1ccc2oc(SCc3nc4ccccc4s3)nc2c1` has the entry 5.5%
Under AmpC inh no det, `O=C(O)c1ccccc1C(=O)N1CCN(c2ccccc2)CC1` has the entry -0.3%
Under AmpC inh no det, `CS(=O)(=O)Nc1ccccc1Oc1ccccc1` has the entry 5.0%
Under AmpC inh no det, `CNC(=O)Cn1nc(C)c2ccccc2c1=O` has the entry -1.8%
Under AmpC inh no det, `CCC(=O)Nc1cccc(-c2nc3ccccc3o2)c1` has the entry 16.2%

Nothing new here: 2 of the compounds above.
molecule,AmpC inh no det
COc1cc(C2/C(=C(/O)c3ccc(F)cc3)C(=O)C(=O)N2CCCC(=O)O)ccc1O (centres undefined),15.3%
CCC(=O)Nc1cccc(-c2nc3ccccc3o2)c1,16.2%

(next part)
molecule,AmpC inh no det
Clc1c(CSc2nc3ccccc3o2)nc2sccn12,11.3%
CC(=O)Nc1sc2c(c1C#N)CCCCC2,8.5%
Cc1ccc(Nc2nc(N)nc(CSc3nccn3C)n2)cc1,-2.9%
CCCc1nnc(NC(=O)C2CCCO2)s1 (centres undefined),19.1%
COc1ccc(OCc2nnc(SC(C)C(=O)Nc3nccs3)n2-c2ccccc2)cc1 (centres undefined),41.4%
COc1ccc(N(CC(=O)Nc2cc(OC)ccc2OC)S(=O)(=O)c2c(C)nn(C)c2C)cc1,118.2%
CCCCN(CCCC)Cc1ccc(N)cc1,-3.4%
N[C@@H](Cc1c[nH]c2ccccc12)C(=O)O,-3.4%
Cc1nc2ccc(N)cc2s1,0.0%
Cn1c(SCCN2CCCCC2)nnc1-c1ccccc1Br,8.0%
O=C(c1ccccc1)c1ccc(C(=O)N2CCN(c3ccc(F)cc3)CC2)o1,50.4%
O=C(Nc1ncc(C(F)(F)F)cc1Cl)C1COc2ccccc2O1 (centres undefined),9.7%
O=C(NC1CCCC1)C(c1ccsc1)N(Cc1ccco1)C(=O)Cc1cccs1 (centres undefined),12.1%
CCN1C[C@]2(C)CC[C@H](OC)[C@@]34[C@@H]2[C@H](OC(C)=O)[C@]2(OCO[C@@]25C[C@@H](OC)[C@@H]2C[C@@]3(O)[C@H]5[C@@H]2OC)[C@H]14,3.7%[12.8 µM]
Cc1ccc(S(=O)(=O)N2CCN(Cc3ccccc3C(F)(F)F)CC2)cc1,9.4%
O=C(Nc1ccon1)c1cc2c(s1)CCCCCC2,?
CCn1c(SCC(=O)c2ccc(F)cc2)nnc1-c1ccoc1C,12.2%
CCN(CC)C(=O)N[C@@H]1C=C2c3cccc4[nH]cc(c34)C[C@@H]2N(C)C1,14.7%&36.7%
CC(C)C[C@@H](CC(=O)N[C@@H](CCCN)CC(=O)N[C@@H]1CCNC[C@H]1C(=O)N[C@H](CC(=O)N[C@@H](CCC(=O)O)CC(=O)O)Cc1ccccc1)NC(=O)[C@@H]1CCCC[C@H]1N,135.4%
COc1ccc(-n2nnnc2SCC(=O)NCc2ccco2)cc1OC,9.0%
Cc1cc(NC(=O)CSc2nccn2-c2ccc(F)cc2)no1,5.2%
Cc1ccccc1CSCC(=O)NC(=O)NCc1ccco1,-8.6%
O=C(O)CN(CCN(CC(=O)O)CC(=O)O)CC(=O)O.[Mn],-7.1%[5.75 µM]
CC(C)COc1ccc(-c2nnc(-c3ccncc3)o2)cc1,77.6%
O=C(NC1CCCCC1)N1CCCc2ccccc21,27.2%
COc1cccc(CNC(=O)CCn2c(=O)oc3ccccc32)c1,11.5%
O=C(O)Cn1c2c(c3ccccc31)CCCC2,-8.8%
Cc1c(C(=O)NCc2ccco2)oc2ccc(S(=O)(=O)N3CCC4(CC3)OCCO4)cc12,101.5%
CC(=O)NCCn1c(SCc2cc(=O)n3cc(Cl)ccc3n2)nc2ccccc2c1=O,100.6%

Three compounds from above, ordered by SMILES length, largest number first.
molecule,AmpC inh no det
Cc1c(C(=O)NCc2ccco2)oc2ccc(S(=O)(=O)N3CCC4(CC3)OCCO4)cc12,101.5%
O=C(O)CN(CCN(CC(=O)O)CC(=O)O)CC(=O)O.[Mn],-7.1%[5.75 µM]
O=C(O)Cn1c2c(c3ccccc31)CCCC2,-8.8%
